Compound activity deposited in PubChem BioAssay by Broad Institute.
HIV Env fusion – blocks HIV Env-driven cell-cell fusion; 360,000 tested, 1.1% active; AID 651610; HeLa-JRFL Env/CEM21 cell fusion, luciferase; inhibition, % at 12.3 µM;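 active = mean replicate inhibition score of at least 50 and every replicate individually at or above 50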;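 note: 0% = plate neutral controls and 100% = maraviroc near 300 nM; one replicate is shown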
Yeast UUG start – modulators of start codon recognition fidelity in yeast; S. cerevisiae UUG-firefly luciferase reporter, luminescence/redox ratio; 350,000 tested, 0.13% active; activity score, % at 18.7 µM;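 active = replicate mean at a twofold rise or more, about +100% in these data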;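 note: firefly luciferase made from a UUG start codon reports start codon fidelity; reporter light over untreated wells divided by growth signal over untreated wells; some hits fall short of that in this replicate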
Starred values were filed as active, the others as inactive; [ ] = remark or other dose. Not all compounds are listed, so the mix of outcomes need not match the whole.

[1] COc1cccc(S(=O)(=O)N[C@@H]2CC[C@H](CC(=O)NCc3ccc(Cl)cc3)O[C@H]2CO)c1
[2] COc1ccc(S(=O)(=O)N[C@H]2CC[C@H](CC(=O)N3CCc4ccccc4C3)O[C@@H]2CO)cc1
[3] COc1ccc(NC(=O)Nc2ccc3c(c2)CC(=O)N([C@H](C)CO)C[C@H](C)[C@@H](CN(C)Cc2ccc(Cl)c(Cl)c2)O3)cc1
[4] O=C(O)C[C@H]1C[C@H]2c3cc(NC(=O)NC4CCCCC4)ccc3O[C@H]2[C@H](CO)O1
[5] O=C(C[C@H]1C=C[C@@H](NC(=O)C2CC2)[C@H](CO)O1)NCC1CC1
[6] C[C@H](CO)N1C[C@H](C)[C@@H](CN(C)Cc2ccc(-c3ccccc3)cc2)Oc2c(NC(=O)Nc3ccc(F)cc3)cccc2C1=O
[7] C[C@H]1CN([C@@H](C)CO)C(=O)c2cc(-c3cccnc3)cnc2O[C@@H]1CN(C)C(=O)C1CCOCC1
[8] C[C@H]1CCCCO[C@@H](CN(C)C(=O)Nc2ccccc2)[C@@H](C)CN([C@@H](C)CO)C(=O)c2cc(NC(=O)c3ccccc3)ccc2O1
Screen / compound no. | 1 | 2 | 3 | 4 | 5 | 6 | 7 | 8
HIV Env fusion | -1[16.7 µM] | -2[16.7 µM] | 16[16.7 µM] | 18[16.7 µM] | -15[16.7 µM] | 13[16.7 µM] | 5[16.7 µM] | -31[16.7 µM]
Yeast UUG start | 21 | -5 | 5 | 5 | -8 | -6 | -4 | 9

[9] C[C@@H]1CN([C@@H](C)CO)C(=O)c2cc(NC(=O)C3CCCCC3)ccc2O[C@@H]1CN(C)Cc1ccc(Oc2ccccc2)cc1
[10] C[C@H](CO)N1C[C@H](C)[C@H](CN(C)C(=O)Cc2ccccn2)Oc2cc(C#Cc3ccccc3)ccc2S1(=O)=O
[11] CC(C)CC#Cc1ccc2c(c1)O[C@H](CN(C)C(=O)C1CCCCC1)[C@H](C)CN([C@@H](C)CO)S2(=O)=O
[12] COc1ccc(C#Cc2cnc3c(c2)C(=O)N([C@H](C)CO)C[C@H](C)[C@H](CN(C)S(=O)(=O)c2cccc(F)c2)O3)cc1OC
[13] C[C@@H]1CN([C@@H](C)CO)S(=O)(=O)c2ccc(/C=C/c3ccccc3)cc2O[C@H]1CN(C)C(=O)Nc1cccc(F)c1
[14] C[C@H](CO)N1C[C@H](C)[C@H](CN(C)Cc2ccc3c(c2)OCO3)Oc2c(NC(=O)c3ccncc3)cccc2C1=O
[15] CNC(=O)C[C@H]1CC[C@H]2[C@H](COc3ccc(NC(=O)c4ccc5c(c4)OCO5)cc3C(=O)N2C)O1
[16] Cc1noc(C)c1S(=O)(=O)Nc1ccc2c(c1)CC(=O)N([C@H](C)CO)C[C@H](C)[C@@H](CN(C)Cc1ccc(Cl)c(Cl)c1)O2
Screen / compound no. | 9 | 10 | 11 | 12 | 13 | 14 | 15 | 16
HIV Env fusion | 9[16.7 µM] | 5[16.7 µM] | 20[16.7 µM] | -5[16.7 µM] | -12[16.7 µM] | 18[16.7 µM] | 23[16.7 µM] | -12[16.7 µM]
Yeast UUG start | 2 | -7 | -12 | -2 | -8 | -15 | 7 | 14

[17] C[C@H](CO)N1C[C@H](C)[C@H](CN(C)S(=O)(=O)c2cn(C)cn2)OCCCC[C@H](C)Oc2ccc(NS(=O)(=O)c3ccccc3)cc2C1=O
[18] CCC(=O)N(C)C[C@H]1Oc2ncc(-c3ccc(F)cc3)cc2C(=O)N([C@H](C)CO)C[C@H]1C
[19] O=C(Cc1ccncc1)NCC[C@H]1CC[C@H](NC(=O)C2CCOCC2)[C@@H](CO)O1
[20] C[C@@H]1CN([C@@H](C)CO)C(=O)c2cc(NC(=O)Nc3ccc(C(F)(F)F)cc3)ccc2O[C@@H](C)CCCCO[C@@H]1CN(C)C(=O)NC1CCCCC1
[21] C[C@@H]1CN([C@H](C)CO)C(=O)c2cc(NC(=O)Nc3cccc4ccccc34)ccc2O[C@@H]1CN(C)C(=O)NC1CCCCC1
[22] Cc1ccc(S(=O)(=O)Nc2ccc3c(c2)C(=O)N([C@H](C)CO)C[C@H](C)[C@H](CN(C)S(=O)(=O)c2ccc(F)cc2)OCCCC[C@@H](C)O3)cc1
[23] C[C@@H]1CN([C@H](C)CO)C(=O)c2cc(NC(=O)Nc3ccc4c(c3)OCO4)ccc2O[C@@H](C)CCCCO[C@H]1CN(C)Cc1ccncc1
[24] Cc1noc(C)c1NC(=O)Nc1ccc2c(c1)C(=O)N([C@@H](C)CO)C[C@H](C)[C@@H](CN(C)C(=O)Nc1ccc3c(c1)OCO3)O2
Screen / compound no. | 17 | 18 | 19 | 20 | 21 | 22 | 23 | 24
HIV Env fusion | -1[16.7 µM] | 18[16.7 µM] | 11[16.7 µM] | -46[16.7 µM] | 7[16.7 µM] | -11[16.7 µM] | -8[16.7 µM] | 16[16.7 µM]
Yeast UUG start | -3 | -8 | -1 | -12 | -15 | -4 | 3 | -8

[25] CC(C)NC(=O)N(C)C[C@@H]1OCCCC[C@@H](C)Oc2ccc(NS(=O)(=O)c3ccc(Cl)cc3)cc2C(=O)N([C@H](C)CO)C[C@H]1C
[26] Cc1ccc(S(=O)(=O)N(C)C[C@@H]2OCCCC[C@@H](C)Oc3ccc(NC(=O)Nc4ccc(C(F)(F)F)cc4)cc3C(=O)N([C@H](C)CO)C[C@H]2C)cc1
[27] COc1ccc(S(=O)(=O)N(C)C[C@H]2OCCCC[C@H](C)Oc3ccc(NC(=O)c4ccccc4)cc3C(=O)N([C@H](C)CO)C[C@@H]2C)cc1
[28] C[C@@H]1CN([C@@H](C)CO)C(=O)c2cc(NC(=O)NC3CCCCC3)ccc2O[C@@H](C)CCCCO[C@@H]1CN(C)C(=O)CCC(F)(F)F
[29] C[C@H]1CN([C@@H](C)CO)C(=O)c2cccc(NC(=O)Nc3ccc4c(c3)OCO4)c2O[C@@H]1CN(C)C(=O)Nc1ccc(F)cc1
[30] Cc1noc(C)c1S(=O)(=O)N(C)C[C@@H]1OCCCC[C@@H](C)Oc2ccc(NC(=O)CCCN(C)C)cc2C(=O)N([C@@H](C)CO)C[C@H]1C
[31] CNC[C@@H]1OCCCC[C@@H](C)Oc2ccc(NS(=O)(=O)c3c(C)noc3C)cc2C(=O)N([C@H](C)CO)C[C@H]1C
[32] Cc1noc(C)c1S(=O)(=O)Nc1ccc2c(c1)CC(=O)N([C@H](C)CO)C[C@@H](C)[C@H](CN(C)C(=O)Nc1ccc(C(F)(F)F)cc1)O2
Screen / compound no. | 25 | 26 | 27 | 28 | 29 | 30 | 31 | 32
HIV Env fusion | -60[16.7 µM] | 57*[16.7 µM] | -26[16.7 µM] | -19[16.7 µM] | 22[16.7 µM] | 0[16.7 µM] | 3[16.7 µM] | -1[16.7 µM]
Yeast UUG start | 28 | 6 | -12 | 18 | -4 | -1 | -12 | -4

[33] COc1ccccc1S(=O)(=O)N(C)C[C@H]1Oc2cc(C#CCC3CCCC3)ccc2S(=O)(=O)N([C@@H](C)CO)C[C@H]1C
[34] CNC[C@H]1Oc2ccc(NC(=O)Nc3cccc4ccccc34)cc2CC(=O)N([C@H](C)CO)C[C@H]1C
[35] C[C@H]1CN([C@@H](C)CO)C(=O)c2cc(C#Cc3ccccc3F)cnc2O[C@H]1CN(C)S(C)(=O)=O
[36] C[C@@H]1CN([C@@H](C)CO)C(=O)c2cc(C#CCN(C)C)cnc2O[C@H]1CN(C)S(=O)(=O)c1cn(C)cn1
[37] CNC[C@H]1Oc2ccc(NC(=O)CCC(F)(F)F)cc2C(=O)N([C@@H](C)CO)C[C@@H]1C
[38] Cc1noc(C)c1NC(=O)N(C)C[C@@H]1OCCCC[C@H](C)Oc2ccc(NS(=O)(=O)c3cn(C)cn3)cc2C(=O)N([C@@H](C)CO)C[C@@H]1C
[39] C[C@@H]1CCCCO[C@@H](CN(C)Cc2ccc(C(F)(F)F)cc2)[C@@H](C)CN([C@@H](C)CO)C(=O)c2cc(NS(=O)(=O)c3cccs3)ccc2O1
[40] CCCNC(=O)N[C@H]1CC[C@H](CC(=O)NCCc2ccccc2)O[C@H]1CO
Screen / compound no. | 33 | 34 | 35 | 36 | 37 | 38 | 39 | 40
HIV Env fusion | 0[16.7 µM] | 5[16.7 µM] | 17[16.7 µM] | -1[16.7 µM] | 4[16.7 µM] | -8[16.7 µM] | -11[16.7 µM] | 16[16.7 µM]
Yeast UUG start | -16 | 15 | -4 | 9 | -4 | -13 | 11 | -16

[41] C[C@@H]1CN([C@@H](C)CO)S(=O)(=O)c2ccc(C3=CCCCC3)cc2O[C@@H]1CN(C)C(=O)CC1CC1
[42] C[C@@H]1CN([C@@H](C)CO)C(=O)Cc2cc(NC(=O)Nc3ccc(F)cc3)ccc2O[C@@H]1CN(C)C(=O)Nc1ccc2c(c1)OCO2
[43] COc1ccccc1C#Cc1ccc2c(c1)O[C@@H](CN(C)C)[C@H](C)CN([C@@H](C)CO)S2(=O)=O
[44] C[C@@H]1CN([C@H](C)CO)C(=O)c2cc(NS(=O)(=O)c3cn(C)cn3)ccc2O[C@H]1CN(C)Cc1ccccc1
[45] C[C@H]1CN([C@@H](C)CO)C(=O)Cc2cc(NC(=O)CCCCCC(=O)Nc3ccccc3N)ccc2O[C@H]1CN(C)Cc1ccccc1
[46] C[C@@H]1CCCCO[C@H](CN(C)S(C)(=O)=O)[C@H](C)CN([C@@H](C)CO)C(=O)c2cc(NS(=O)(=O)c3ccc(Cl)cc3)ccc2O1
[47] Cc1noc(C)c1S(=O)(=O)Nc1ccc2c(c1)C(=O)N([C@H](C)CO)C[C@H](C)[C@@H](CN(C)S(=O)(=O)c1c(C)noc1C)OCCCC[C@H](C)O2
[48] Cc1ccc(S(=O)(=O)N(C)C[C@H]2OCCCC[C@@H](C)Oc3ccc(NC(=O)Nc4ccc(F)cc4)cc3C(=O)N([C@H](C)CO)C[C@H]2C)cc1
Screen / compound no. | 41 | 42 | 43 | 44 | 45 | 46 | 47 | 48
HIV Env fusion | 14[16.7 µM] | -3[16.7 µM] | -9[16.7 µM] | 7[16.7 µM] | -52[16.7 µM] | -18[16.7 µM] | -6[16.7 µM] | -20[16.7 µM]
Yeast UUG start | 9 | -4 | -3 | -5 | 5 | -4 | 16 | -10

[49] CCC(=O)Nc1ccc2c(c1)OC[C@@H](C)N(CC1CCOCC1)C[C@H](C)[C@H](OC)CN(C)C2=O
[50] N#C[C@H]1[C@H](c2ccc(C#Cc3ccccc3F)cc2)[C@@H](CO)N1C(=O)C1CCCCC1
[51] COc1cccc(S(=O)(=O)N(C)C[C@@H]2Oc3ncc(C#CCC(C)C)cc3C(=O)N([C@@H](C)CO)C[C@@H]2C)c1
[52] C[C@@H]1CN([C@@H](C)CO)C(=O)c2cc(NS(=O)(=O)c3ccc(Cl)cc3)ccc2O[C@@H]1CN(C)CC1CC1
[53] Cc1noc(C)c1S(=O)(=O)Nc1ccc2c(c1)C(=O)N([C@H](C)CO)C[C@@H](C)[C@@H](CN(C)C(=O)CCC(F)(F)F)OCCCC[C@@H](C)O2
[54] CC(C)C#Cc1cnc2c(c1)C(=O)N([C@@H](C)CO)C[C@@H](C)[C@H](CN(C)C(=O)C1CCC1)O2
[55] Cc1ccc(S(=O)(=O)Nc2ccc3c(c2)C(=O)N([C@@H](C)CO)C[C@H](C)[C@H](CN(C)Cc2ccccc2)OCCCC[C@@H](C)O3)cc1
[56] O=C(Cc1ccccn1)NCC[C@@H]1CC[C@H](NC(=O)c2ccccc2F)[C@@H](CO)O1
Screen / compound no. | 49 | 50 | 51 | 52 | 53 | 54 | 55 | 56
HIV Env fusion | -14[16.7 µM] | 48[16.7 µM] | 2[16.7 µM] | 12[16.7 µM] | 8[16.7 µM] | 3[16.7 µM] | -25[16.7 µM] | -3[16.7 µM]
Yeast UUG start | 1 | -12 | 1 | -6 | -4 | 37 | 13 | -9

Fetched one by one from above (3):
[42] C[C@@H]1CN([C@@H](C)CO)C(=O)Cc2cc(NC(=O)Nc3ccc(F)cc3)ccc2O[C@@H]1CN(C)C(=O)Nc1ccc2c(c1)OCO2
[53] Cc1noc(C)c1S(=O)(=O)Nc1ccc2c(c1)C(=O)N([C@H](C)CO)C[C@@H](C)[C@@H](CN(C)C(=O)CCC(F)(F)F)OCCCC[C@@H](C)O2
[34] CNC[C@H]1Oc2ccc(NC(=O)Nc3cccc4ccccc34)cc2CC(=O)N([C@H](C)CO)C[C@H]1C
Screen / compound no. | 42 | 53 | 34
HIV Env fusion | -3[16.7 µM] | 8[16.7 µM] | 5[16.7 µM]
Yeast UUG start | -4 | -4 | 15

Next entries
[57] O=C(Cc1ccccn1)N[C@@H]1CC[C@@H](CCNC(=O)c2cc(Cl)cc(Cl)c2)O[C@@H]1CO
[58] CCNC(=O)C[C@H]1C=C[C@H](NC(=O)C2CC2)[C@H](CO)O1
[59] C[C@H](CO)N1C[C@H](C)[C@H](CN(C)C)Oc2cc(-c3ccccc3)ccc2S1(=O)=O
[60] C[C@@H]1CN([C@@H](C)CO)S(=O)(=O)c2ccc(C#CC3CC3)cc2O[C@@H]1CN(C)C(=O)c1cccnc1
[61] COc1ccc(S(=O)(=O)Nc2ccc3c(c2)C(=O)N([C@H](C)CO)C[C@H](C)[C@H](CN(C)C(=O)Nc2c(C)noc2C)O3)cc1
[62] COc1ccc(S(=O)(=O)Nc2ccc3c(c2)C(=O)N([C@@H](C)CO)C[C@@H](C)[C@@H](CN(C)C(=O)Nc2c(C)noc2C)OCCCC[C@@H](C)O3)cc1
[63] C[C@H]1CN([C@@H](C)CO)S(=O)(=O)c2ccc(C#CC3(O)CCCC3)cc2O[C@@H]1CN(C)C(=O)c1ccncc1
Screen / compound no. | 57 | 58 | 59 | 60 | 61 | 62 | 63
HIV Env fusion | 4[16.7 µM] | -13[16.7 µM] | -9[16.7 µM] | 7[16.7 µM] | 35[16.7 µM] | -15[16.7 µM] | 1[16.7 µM]
Yeast UUG start | 15 | -19 | -13 | -2 | -13 | 29 | -8
